# Screening results from PubChem.
# HIV Env fusion: inhibitors of HIV-1 Env-driven cell-cell fusion, primary screen, HeLa-JRFL effector, CEM21 target cells, luciferase. inhibition, % at 12.3 µM. hit rate 1.1% among 360,000;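 active = mean replicate inhibition score of at least 50 and every replicate individually at or above 50; inconclusive = only one of the two criteria met; inactive = mean below 50 and not all replicates reaching 50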;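 note: 0% = plate neutral controls and 100% = maraviroc near 300 nM; one replicate is shown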
# MT1-MMP act inh: blockers of MT1-MMP proenzyme processing, primary screen, HT1080 RFP-PRO-GFP cells, GFP/RFP fluorescence; Matrix metalloproteinase-14 (Homo sapiens), P50281; GFP/RFP ratio fluorescence, overnight; percent of plate control window, DMSO zero; GFP/RFP ratio change, % at 20 µM; hit rate 0.061% among 360,000; AID 651647, 2012;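 active = GFP/RFP ratio change of at least 30% with cell ATP level not reduced by more than half and red fluorescence within 50% of control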; note: strong numbers were not always called active
#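 Assay system: HT1080 RFP-PRO-GFP cells | Dosing: 20 µM single dose, 1% DMSO | Incubation: Cells overnight before dosing, compound overnight, 37 °C, 5% CO2 | Evaluation: GFP/RFP fluorescence ratio | Control set: DMSO-only wells and HT1080 RFP-L50D-GFP cell wells as references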
# Yeast UUG start: modulators of yeast start codon fidelity, primary screen, whole organism, S. cerevisiae, single point, plate reader. hit rate 0.13% among 350,000. activity score, % at 18.7 µM. AID 602363, 2012. S. cerevisiae UUG-firefly luciferase reporter, luminescence/redox ratio;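 active = replicate mean at a twofold rise or more, about +100% in these data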;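 note: firefly luciferase made from a UUG start codon reports start codon fidelity; reporter light over untreated wells divided by growth signal over untreated wells; some hits fall short of that in this replicate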
# CSC inhib: cancer stem cell viability inhibitors, primary screen, luminescence. inhibition, % at 7.5 µM. cancer stem cell-like cells viability. hit rate 1.1% among 300,000. AID 2717, 2010;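 active = mean at 75% or more and at least half the replicates too; inconclusive = mean and replicates disagree; tested in HMLE shEcad cells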;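 note: 0% = median of negative and 100% = median of positive control wells; the first replicate is given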
# Rce1 inh: yeast Rce1p protease inhibitors, primary screen, biochemical, fluorescence, cell-free homogeneous; yeast membranes, quenched prenylated peptide cleavage fluorescence; calls only; hit rate 0.27% among 290,000;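 active = fall in fluorescence gain of 50% or more versus controls, with final raw signal at or below 3038400; inconclusive = same 50% fall but final raw signal above 3038400; inactive = fall in fluorescence gain under 50%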;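 note: plate controls were neutral control wells for no effect and wells lacking membranes for full effect; tested at 10 µM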
# Target sequence (Q03530 whole entry, looked up): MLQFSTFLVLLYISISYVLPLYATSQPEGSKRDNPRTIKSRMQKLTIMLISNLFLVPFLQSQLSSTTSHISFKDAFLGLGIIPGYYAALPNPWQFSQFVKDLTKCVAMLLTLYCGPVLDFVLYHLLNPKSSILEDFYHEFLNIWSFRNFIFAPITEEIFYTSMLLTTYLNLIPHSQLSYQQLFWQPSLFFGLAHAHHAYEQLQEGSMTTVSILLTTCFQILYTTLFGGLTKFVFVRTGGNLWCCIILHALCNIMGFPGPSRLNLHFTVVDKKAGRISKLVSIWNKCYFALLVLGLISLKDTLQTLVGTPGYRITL
# PABP FP inh: PABP poly(A) RNA binding inhibitors, primary screen, biochemical, fluorescence polarization, uHTS | Polyadenylate-binding protein 1 (Homo sapiens), P11940 | inhibition, % at 35 µM | hit rate 1% among 290,000 | AID 2014, 2009;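 active = 50% or more with normal probe brightness, or confirmed in later tests; inconclusive = above 50% with abnormal brightness, or retests that disagree; inactive = below 50% or failed in later tests; about a fifth of its hits are not listed in these tables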;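 note: calls also rest on retests at 20 µM and on dose response follow-up; controls were probe without protein and protein plus probe with vehicle; some compounds called inactive have numbers as strong as hits; many hits fall short of the cut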
# eIF4H FP inh: human eIF4H binding inhibitors, primary screen, translation initiation inhibitor project, biochemical, uHTS, fluorescence polarization | eIF4H fluorescence polarization binding assay | Eukaryotic translation initiation factor 4H (Homo sapiens), Q15056 | hit rate 0.94% among 290,000 | inhibition, % at 35 µM | AID 2012, 2009;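 active = 50% or more with normal probe brightness, or confirmed in later tests; inconclusive = above 50% with abnormal brightness, or retests that disagree; inactive = below 50% or failed in later tests; about a fifth of its hits are not listed in these tables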;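 note: calls also rest on retests at 20 µM and on dose response follow-up; 0% = protein and probe with vehicle and 100% = probe without protein; strong numbers were not always called active; many hits fall short of the cut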
# eIF4H FP inh retest: further read-out of eIF4H FP inh, marked with its call; inhibition, %; compound at 20 µM; confirmation average;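 mean of two retest wells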
# PABP FP inh retest: also measured in PABP FP inh; calls as there; inhibition, %; compound at 20 µM; confirmation repeats;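 mean of two retest wells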
# MT1-MMP act inh RFP: recorded beside MT1-MMP act inh, whose call it bears; RFP signal change, %; measured here: RFP expression control read;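 0 = vehicle wells; hits needed this value within 50% of zero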
# The depositor's hits bear a star; i = inactive; ? = inconclusive; · = not tested or not shown.
SMILES,HIV Env fusion,MT1-MMP act inh,MT1-MMP act inh RFP,Yeast UUG start,CSC inhib,Rce1 inh,PABP FP inh,eIF4H FP inh,others
C=CCNCCCCOc1ccccc1,-13,-1,0,-3,-14,i,-8,8,
COc1ccc(C(=O)Nc2nccs2)cc1OC,·,0,-6,-11,·,i,5,5,
C#CCN(C[C@@H](CC(C)C)NC(=O)OC(C)(C)C)S(=O)(=O)c1ccc(Br)cc1F,32,-24,-25,-11,·,·,·,·,
CC(=O)N1CCN(Cc2nc3cc(NC(=O)c4ccccc4)ccc3n2C)CC1,·,3,2,-6,-8,i,2,-1,
Nc1cc(N)nc(SCCOc2ccccc2)n1,·,11,3,-10,-9,·,-2,-2,
CN(C)CC/C=C1\c2ccccc2COc2ccccc21,22,-2,4,-17,·,i,0,-8,
CCC(OC(=O)c1cc2sccc2n1C)C(=O)NCC1CCCO1 (centres undefined),·,5,-3,-7,9,·,9,-7,
Cc1ccc(-c2cccc(C3CC=CC4C3C(=O)N(Cc3ccccc3)C4c3cc(C)ccc3F)c2)cc1 (centres undefined),48,-5,-22,-10,14,i,-5,-8,
COc1ccc(C(=O)CC(=O)C(=O)Nc2cccc(F)c2)cc1,7,3,5,-3,-8,i,14,15,
O=C(NN=C1CCCCCCC1)c1ccc(F)cc1,-13,-3,2,·,4,i,46,1,
COCc1cc(C)nc(SCC(=O)Nc2ccccc2C)c1C#N,-14,0,2,-14,4,i,-2,-7,
OCCNc1ncnc2c1ncn2[C@H]1CN(Cc2ccco2)C[C@@H](CO)O1,1,-4,5,-8,·,·,·,·,
O=C(CCC(=O)NNC(=O)COc1ccccc1)NCc1ccccc1,·,1,-1,-9,-3,i,-5,-13,
C(=C\c1ccccc1)/C=N/Nc1nc(N2CCCCC2)nc(N2CCCCC2)n1,·,0,6,-20,0,i,-2,8,
COc1ccccc1NC(=O)c1oc2ccccc2c1NC(=O)C1CC1,7,-2,4,-21,3,i,1,-4,
CCOc1ccccc1NC(=O)c1ccc2c(c1)C(=O)N(C(C)(C)C)C2=O,6,3,2,-14,2,i,-6,4,
O=C(CN(Cc1ccccc1F)C(=O)c1csnn1)NC1CCCCC1,0,-3,2,0,·,i,51,-8,eIF4H FP inh retest=19;PABP FP inh retest=14
CCCC(=O)c1ccc(N2CCN(S(=O)(=O)c3ccccc3)CC2)c(F)c1,·,2,-7,-7,24,i,-1,-15,
Cc1ccc(-c2cn(S(=O)(=O)c3cccc([N+](=O)[O-])c3)nc2N)cc1,33,-2,-9,-14,-13,i,3,0,
CN(CC(=O)Nc1ccc(N2CCOCC2)cc1)C(=O)Cc1ccccc1,-9,1,4,-9,·,·,·,·,
CN(C(=O)COc1ccccc1)c1nnc(C23CC4CC(CC(C4)C2)C3)s1,12,-3,-1,-4,46,i,7,-7,
O=C(NCC(=O)N(c1ccc(F)cc1)C(C(=O)NC1CCCC1)c1cccnc1)c1cccs1 (centres undefined),9,-2,3,-12,1,i,2,8,
CCc1ccc(N2CC(C(=O)N3CCN(c4ccc([N+](=O)[O-])cc4)CC3)CC2=O)cc1 (centres undefined),0,1,1,-33,·,·,·,·,
O=C(c1ccccc1)c1ccc(C(=O)N2CCOCC2)cc1,·,-9,-6,-7,5,i,1,1,
Cc1ccc(OCc2nnc(SCC(=O)O)n2N)cc1,·,-1,-1,·,11,i,8,-15,
Cn1c(=O)c2c(-c3ccccc3)n(-c3cccc(O)c3)cc2n(C)c1=O,-23,-10,-3,-10,·,·,·,·,
CCOC(=O)C1(C)CCCN1C(=O)c1sccc1C (centres undefined),9,1,5,-18,·,·,·,·,
CCOc1ccc(/C=N/O)cc1,-14,-3,0,-13,4,i,-4,-3,
CC1(C)CC(=O)C2=C(C1)OC(N)=C(C#N)C21CCN(Cc2ccccc2)CC1,-6,-23,8,-9,-6,i,?,?,
CCOC(=O)CC1=C(C(=O)OCC)C(c2ccc(OC)cc2OC)C(C#N)=C(N)O1 (centres undefined),·,-10,-2,-1,-8,i,41,60,eIF4H FP inh retest=12;PABP FP inh retest=19
COc1ccc(-c2nnc(-c3ccc(C)cc3)o2)cc1,-64,1,-1,-10,3,i,-2,0,
O=C(N/N=C/c1ccncc1)c1cnccn1,32,-7,2,·,-20,i,-10,-8,
C/C(=N\NC(N)=O)C1CC(CC(C)C)C(=O)O1 (centres undefined),24,0,4,13,-10,·,53,-4,eIF4H FP inh retest=-20;PABP FP inh retest=-3
Cc1ccc(N2CC(C(=O)NCCN3CCOCC3)CC2=O)cc1 (centres undefined),2,-1,2,-25,-7,·,10,2,
COc1ccc(Nc2nc(-c3c[nH]c4ccccc34)cs2)cc1,-5,33*,42*,·,27,i,-1,14,
O=C(Cn1cc(C(F)(F)F)cc(Cl)c1=O)NCc1ccc(F)cc1,3,-1,3,-8,-26,i,7,11,
CCN1CCN(C(c2cccs2)C(C)NC(=O)C(=O)N2CCCCC2)CC1 (centres undefined),-29,-1,5,-31,-14,i,-4,-1,
CCN1CCN(CCCNC(=O)c2cc3c(=O)oc4ccc(C)cc4c3s2)CC1,-14,2,6,-17,-4,i,2,3,
CC1CCCN(CC(=O)N2c3ccccc3Sc3ccccc32)C1 (centres undefined),7,2,1,·,-4,i,54,3.1*,eIF4H FP inh retest=68*;PABP FP inh retest=8
Cc1nnc(SCC(=O)O)s1,12,1,0,·,-4,i,4,-8,
CCC(C)Sc1ccc([C@@H]2[C@H]3C(=O)N(CC)C(=O)[C@H]3[C@]3(C(=O)OC)CCCCN23)cc1 (some centres undefined),44,-19,-8,-14,16,·,·,·,
O=C(CCS(=O)(=O)c1ccc(Cl)cc1)N1CCN(S(=O)(=O)c2cccs2)CC1,-47,4,-2,14,0,i,6,7,
Cc1cc(C)cc(N(C(=O)c2sc(C)nc2C)C(C(=O)NCc2ccco2)c2ccccc2)c1 (centres undefined),·,-8,1,5,15,i,1,-7,
CC(C)Nc1nc(Cl)nc(NCCOc2ccccc2)n1,44,-1,1,·,-1,i,2,-6,
CCN1CCN(C(=O)c2ccc3c(c2)S(=O)(=O)c2ccccc2C3=O)CC1,-15,-1,4,·,-4,i,0,6,
C(=N\n1cnnc1)/c1ccc(OC2CSC2)cc1,·,7,4,-22,-10,i,-3,-2,
O=C(NC1CCCCC1)C1(c2ccccc2)CC1(Cl)Cl (centres undefined),-3,2,4,·,-13,i,-6,9,
O=C(NCc1cccc(C(F)(F)F)c1)C1CCN(c2ncccn2)CC1,-29,-2,2,-4,-8,i,-2,-6,
CCOC(=O)C1CCN(C(=O)/C=C/c2ccccc2)CC1,-108,2,1,·,11,i,12,2,
CCc1nc2nc(C)c(NS(=O)(=O)c3ccc(CC(C)C)cc3)c(=O)n2[nH]1,4,·,·,-3,9,·,12,0,
CC(C)c1ccc(C2CC(=O)c3cnc(NC(=O)c4ccco4)nc3C2)cc1 (centres undefined),-24,4,-3,8,0,i,-2,-8,
Cc1ccc(S(=O)(=O)NCc2ccc(C(=O)N3CCN(c4ccccn4)CC3)cc2)cc1,16,0,-6,-9,35,i,-2,-5,
COc1ccccc1CC(=O)N(CCC#N)CCC#N,-136,5,7,-27,-9,i,2,-6,
CC(=O)c1cc(F)c(N2CCN(C(=O)COc3ccccc3F)CC2)cc1C,6,-3,-7,-4,-10,i,-7,-6,
O=C(Nc1ccc2oc(-c3ccncc3)nc2c1)c1c(F)c(F)c(F)c(F)c1F,-42,6,-4,-14,-11,·,2,9,
CN(C(=O)c1cccc(NC(=O)Cc2cccc(NC(=O)C3CCCN(C(=O)C4CCCCC4)C3)c2)c1)C1CCC1 (centres undefined),2,-1,-2,-12,·,·,·,·,
CN(C)C(=O)c1cccc(-c2cnc3cccnn23)c1,41,-4,-7,-20,·,·,·,·,
Cc1ccc(-c2cc(C(=O)N3CCN(c4ncccn4)CC3)c3ccccc3n2)cc1,-130,-13,-16,2,-8,i,12,-6,
N#Cc1ccccc1NC(=O)COC(=O)c1ccc2c(c1)OCCO2,·,0,3,-22,-3,i,-6,1,
COc1ccc(OC)c(NC(=O)c2cnn(-c3ccccc3)c2C)c1,-17,2,2,1,-5,i,3,3,

# Arranged by number of heavy atoms (descending): some entries from above.
SMILES,HIV Env fusion,MT1-MMP act inh,MT1-MMP act inh RFP,Yeast UUG start,CSC inhib,Rce1 inh,PABP FP inh,eIF4H FP inh,others
CC(=O)c1cc(F)c(N2CCN(C(=O)COc3ccccc3F)CC2)cc1C,6,-3,-7,-4,-10,i,-7,-6,
CCOC(=O)C1(C)CCCN1C(=O)c1sccc1C (centres undefined),9,1,5,-18,·,·,·,·,
O=C(N/N=C/c1ccncc1)c1cnccn1,32,-7,2,·,-20,i,-10,-8,

# Next entries:
SMILES,HIV Env fusion,MT1-MMP act inh,MT1-MMP act inh RFP,Yeast UUG start,CSC inhib,Rce1 inh,PABP FP inh,eIF4H FP inh,others
O=C(O)c1c2c(nc3ccc(S(=O)(=O)N4CCC(C(=O)NCc5ccc(Cl)cc5)CC4)cc13)CCCC2,-6,-5,1,-13,8,i,16,-1,
C/C(=N\NC(=O)c1ccc2c(c1)OCO2)c1ccc2c(c1)OCO2,-21,4,5,-13,·,i,1,-3,
CCn1c(CSc2nccn2C)nc2cc(C(=O)O)ccc21,·,15,18,-30,-5,i,126*,115*,
O=C(NCc1ccccc1)c1cnc(Cl)c(Cl)c1,-7,0,2,-4,-13,i,-3,4,
COc1cccc(NC(=O)C(NCC2CCCCC2)c2ccccc2)c1 (centres undefined),·,0,-4,-3,0,i,9,-2,
Cc1cccc(NC(=O)CNC(=O)CN2C(=O)NC3(CCc4ccccc43)C2=O)c1C (centres undefined),-3,3,1,1,·,·,·,·,
COC(C[C@H](O)[C@@H](C)[C@H](O)COCc1ccccc1)OC,7,-1,3,-5,·,·,-3,-10,
CCC(=O)N1CCN(c2ccc(NC(=O)c3ccc(-c4ccccc4)cc3)cc2)CC1,·,·,·,·,·,i,-2,-4,
CCc1ccc(N(CC(=O)NCC2CCCO2)C(=O)CCC(=O)Nc2nccs2)cc1 (centres undefined),13,-4,-3,-8,·,i,2,-21,
CCC(=O)Oc1ccc(C2NC(=O)c3ccccc3O2)cc1OC (centres undefined),8,-2,0,-6,-4,i,-3,-10,
Cc1c(Cl)cccc1N1C(=O)C2ON(c3ccccc3)C(c3cccnc3)C2C1=O (centres undefined),-104,3,1,-7,-10,i,0,8,
CC(C)c1ccc(OCC(=O)N2CCc3ccccc3C2)cc1,2,1,-3,-7,-2,i,-1,-3,
O=C1c2ccccc2C(=O)N1CCSc1nc2ccccc2c(=O)n1CCCN1CCOCC1,16,-4,-3,·,-10,i,11,2,
Cc1ccc(NC(=O)COc2ccc(N(C)C(=O)C(C)(C)C)cc2)cc1S(=O)(=O)N1CCCCC1,26,16,-31,-6,3,·,·,·,
CC1CCCN(C2=C(Cl)C(=O)N(c3cccc(Cl)c3)C2=O)C1 (centres undefined),4,2,2,-9,-10,i,-4,-6,
COc1ccc(C(=O)C(=O)c2ccc(OCCO)cc2)cc1,-27,2,1,-30,7,i,·,·,
CCOC(=O)c1cccc(NC(=O)CSc2nc(N)cc(N)n2)c1,11,1,-1,-14,·,i,0,7,

# This is a subset; the hit share may differ from the screen's.
